# Screening results as filed in PubChem.
# PK Bst: alters activity of Bacillus stearothermophilus pyruvate kinase. partly purified Bacillus stearothermophilus pyruvate kinase, luminescence ATP production; ribose 5-phosphate activator present at AC10. Potency, µM. hit rate 1.2% among 51,000. AID 361; in the data active means potency below about 11 µM; inconclusive means mostly about 12 µM to 25 µM; inactive means weaker than that;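 the screen sought inhibitors and activators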;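 also: potency is read from the fitted curve at half-maximal effect; scaled between full activation by ribose 5 phosphate and full inhibition by luteolin; about four in five hits inhibit and the cells do not say which; series up to 57 µM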
# TsaE inh: YjeE (TsaE) inhibition, E. coli | hit rate 0.05% among 71,000 | purified YjeE, fluorescence polarisation of a bound ADP probe | Potency, µM | AID 605; active = well fitted falling curve; inconclusive = weaker or top-dose-only fall, or a rising curve; inactive = flat or poorly fitted curve;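 also: top concentration of the series not given in the record; excess ADP was the control for the full effect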
#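 Purified YjeE (10 uM) with BODIPY Texas Red-labeled ADP probe (2 uM); compounds pin-transferred, 15 min at room temperature. Binding inhibition read as decreased fluorescence polarization; ADP titration as control.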
# Starred values were filed as active, the others as inactive; i = inactive; ? = inconclusive; / = not tested or not shown. An excerpt, so the mix of outcomes need not match the whole.
No.	smiles	PK Bst	TsaE inh
1	CN1CCN(c2ncc3nc(CCc4ccccc4)c(=O)n(Cc4cccs4)c3n2)CC1	/	i
2	CCCOC(=O)CSc1nnc(-c2ccccc2Cl)o1	>57	i
3	O=C(c1ccccc1C(F)(F)F)N1CCN(S(=O)(=O)c2ccccc2)CC1	>57	i
4	c1ccc(CCc2nn3c(Cc4ccccc4)nnc3s2)cc1	>57	i
5	C[N+]1(C)CCC[C@@H](OC(=O)C(O)(c2ccccc2)c2ccccc2)C1	/	i
6	COc1ccc(OC)c(C(=O)CSc2nnc(-c3ccc(OC)c(OC)c3)o2)c1	>57	i
7	Cc1ccc(-c2csc(N)n2)s1	/	i
8	O=C(Oc1cccnc1)c1ccc(Cl)c(Cl)c1	>57	i
9	COc1ccc(NC(=O)c2oc3ccccc3c2NC(=O)c2ccco2)c(OC)c1	>57	i
10	c1ccc(OCc2nc(-c3ccccc3)no2)cc1	>57	i
11	COc1ccc(-c2cc(C(F)(F)F)nc(N3CCN(C)CC3)n2)cc1	>57	i
12	CCCCOc1ccc(C2C3CN(C(=O)OCC)CC=C3C(C#N)=C(N)C2(C#N)C#N)cc1OC (stereo not given)	/	i
13	COc1cc2c(cc1OC)CN(CC(=O)NC(=O)NCc1ccco1)CC2	>57	i
14	Cc1cc(C(=O)CN2CC(C)OC(C)C2)c(C)n1-c1ccccc1 (stereo not given)	/	i
15	O=C(NCc1cccnc1)c1cccc(S(=O)(=O)N2CCOCC2)c1	/	i
16	CC(C)(C)n1c(=O)[nH]c2c(c1=O)CCC2	>57	i
17	COc1nc(-c2ccccc2)cc(-c2ccccc2)n1	/	i
18	CCN(CC)CCNC(=O)Cn1c(-c2ccccn2)nc2ccccc21	>57	i
19	CCCC(=O)N=C1SC2CS(=O)(=O)CC2N1c1ccc(C(C)=O)cc1 (stereo not given)	>57	i
20	C=CCn1cc(C(=O)NCc2cccnc2)c(=O)c2cc(S(=O)(=O)N(CC)CC)ccc21	/	i
21	CC(C)CN1CC2(CCN(C(=O)c3cnccn3)CC2)C1	/	i
22	COc1cc2[nH]c(=O)n(CCCCCC(=O)N3CCN(c4ccccc4)CC3)c(=O)c2cc1OC	>57	i
23	Cc1cc2n(n1)C(c1ccc(O)cc1)Nc1ccccc1-2 (stereo not given)	?	i
24	CN(C)c1ccc(CNC(=O)C2(C)C=CCN2C(=O)c2ccccc2)cc1 (stereo not given)	/	i
25	O=C(O)Cn1c(=O)oc2cc(S(=O)(=O)NC3CCCCC3)ccc21	/	i
26	O=P(O)(CN1CCCCCC1)CN1CCCCCC1	/	i
27	O=C1c2ccccc2C(=O)N1C/C=C/CN1C(=O)c2ccccc2C1=O	/	i
28	CCCCOc1ccc(NC(=O)C2CC=CCC2C(=O)O)cc1 (stereo not given)	/	i
29	CC(C)c1ccc(NC(=O)N2CCC(c3nc4ccccc4o3)CC2)cc1	>57	i
30	COC(=O)[C@@H](NC(=O)Nc1ccc(C(C)=O)cc1)C(C)C	>57	i
31	Cc1ccccc1Cn1c(=O)n(Cc2ccco2)c(=O)c2ccccc21	>57	i
32	COCCNC(=O)CN(C(=O)CCC(=O)Nc1ccccn1)c1ccc(F)c(Cl)c1	>57	i
33	Cc1cc(C(=O)Nc2ccc3c(c2)OCO3)cs1	i	i
34	CSCCC(NC(=O)c1ccccc1)C(=O)NC1CCCC1 (stereo not given)	>57	i
35	COc1ccccc1S(=O)(=O)Cc1ccc(C(=O)N2CCN(c3cccc(Cl)c3)CC2)o1	>57	i
36	CCCn1c2ccccc2c2nnc(SCC(=O)OC)nc21	/	i
37	Cc1ccc(-n2nc(C)c(C3C(C#N)=C(N)OC4=C3C(=O)CCC4)c2Cl)cc1 (stereo not given)	>57	i
38	COc1ccc(Cl)cc1C(=O)Nn1cnc2ccccc2c1=O	>57	i
39	Cc1ccc2[nH]cc(C(=O)CN3CCN(c4ccccn4)CC3)c2c1	>57	i
40	COc1ccc(C2C(C#N)=C(C)NC3=C2C(=O)c2ccccc23)cc1 (stereo not given)	>25.6	/
41	COc1ccc(Nc2nc(C)cc(C)c2C#N)cc1OC	/	i
42	CCOC(=O)/C(C#N)=C1/CCCCCN1C	>57	i
43	CCOC(=O)Oc1ccc2oc(C)c(C(=O)OCCOC)c2c1	>57	i
44	CNC(=O)c1cc2c(=O)n3cc(C)ccc3nc2n(Cc2ccco2)c1=N	/	i
45	COc1ccc(NC(=O)C2=C(C)C(=O)OC23CCC(C)CC3)c(OC)c1 (stereo not given)	/	i
46	Nc1nc(-c2ccccc2)cc(C(F)(F)F)n1	/	i
47	Cc1nnc2n(Cc3ccccc3)c(=O)c3c4c(sc3n12)COC(C)(C)C4	>57	i
48	O=C(CSc1nnc2scc(-c3ccccc3)n12)Nc1ccc2c(c1)OCCO2	>57	i
49	CCOC(=O)c1ccc(NC(=O)CSc2nnc(COc3ccccc3)n2C)cc1	>57	i
50	COC(=O)N1CCC2(CCCN(C(=O)Nc3ccc(OC)cc3)C2)CC1	/	i
51	CCOC(=O)CSc1nc2cc3c(cc2cc1C#N)OCO3	>57	i
52	Clc1ccccc1OCCn1cnc2ccccc21	>57	i
53	COc1nnnc2c1sc1nc(N3CCOCC3)c3c(c12)CC(C)(C)OC3	>25.6	/
54	O=C(COC(=O)Cn1[nH]c(=O)c2ccccc2c1=O)Nc1ccc2c(c1)OCO2	>57	i
55	CCNc1ncc2nc(-c3ccc(Cl)cc3)c(=O)n(C)c2n1	/	i
56	COc1cccc(CNC(=O)C2CCN(S(=O)(=O)c3cnc[nH]3)CC2)c1	>57	i
57	CCc1cc(=O)oc2cc(OCC(=O)O)c(Cl)cc12	>57	i
58	O=C(CSc1nnc(-c2cccs2)n1-c1ccccc1)N1CCN(C(=O)c2ccco2)CC1	>57	i
59	c1ccc(CN2CCC3(CC2)Nc2ccccc2CO3)cc1	>57	i
60	COc1ccc(N2CCN(C(=O)CSc3nnc(-c4ccc5[nH]c(C)c(C)c5c4)o3)CC2)cc1	>57	i

# Part of the list above, with one line to a screen.
(49) CCOC(=O)c1ccc(NC(=O)CSc2nnc(COc3ccccc3)n2C)cc1
(50) COC(=O)N1CCC2(CCCN(C(=O)Nc3ccc(OC)cc3)C2)CC1
(51) CCOC(=O)CSc1nc2cc3c(cc2cc1C#N)OCO3
(52) Clc1ccccc1OCCn1cnc2ccccc21
(53) COc1nnnc2c1sc1nc(N3CCOCC3)c3c(c12)CC(C)(C)OC3
(54) O=C(COC(=O)Cn1[nH]c(=O)c2ccccc2c1=O)Nc1ccc2c(c1)OCO2

screen / no.,49,50,51,52,53,54
PK Bst,>57,/,>57,>57,>25.6,>57
TsaE inh,i,i,i,i,/,i

# Following part.
No.	smiles	PK Bst	TsaE inh
61	CC1=CC(C)(C)N=C(Nc2ccc(C)cc2)S1	>57	i
62	COC(=O)c1ccc(CNC(=O)CNc2cc(C(F)(F)F)ccc2N2CCOCC2)cc1	>57	i
63	CC(C)Oc1ccc(C2CNC(=O)C2)cc1 (stereo not given)	/	i
64	O=C(NCc1cccnc1)[C@@H]1[C@@H](C(=O)O)[C@H]2CC[C@@H]1O2	/	i
65	CC(=O)c1cccc(NC(=O)C2CCN(S(C)(=O)=O)CC2)c1	>57	i
66	O=C(Nc1cccc(Cl)c1)N1CCN(c2ncccn2)CC1	>57	i
67	COc1cccc(-c2nc(NCc3ccco3)c3ccccc3n2)c1O	>25.6	/
68	COc1ccc2[nH]c3c(=O)n(Cc4ccco4)cnc3c2c1	>57	i
69	COc1cccc(C(=O)CSc2nnc(-c3cc(OC)c(OC)c(OC)c3)o2)c1	>57	i
70	Cn1c(=O)cc(SCC(=O)N2CCCC2)c2ccccc21	>57	i
71	Cc1cc(NCCCCO)n2c(nc3ccccc32)c1C#N	>57	i
72	Cc1nc(CC(=O)c2c(C)cc(O)cc2O)cs1	/	i
73	O=S(=O)(c1cccc(-c2nnc(SC(F)F)n2-c2ccccc2)c1)N1CCCCC1	>57	i
74	CC1N=C2c3ccccc3N=C(SCc3cc(=O)n4cc(Cl)ccc4n3)N2C1=O (stereo not given)	>57	i
75	CCCOc1ccc(C2C(=O)N(C3CCCCC3)CC(=O)N2CCCOCC)cc1OC (stereo not given)	>57	i
76	Cc1occc1C(=O)NCCCCNC(=O)c1ccoc1C	>57	i
77	O=C(O)CCS(=O)(=O)Cc1cccc(Cl)c1	>57	i
78	Cn1c(Cn2nnc3ccccc32)nnc1SCC(=O)Nc1ccc2c(c1)OCO2	>57	i
79	CCCOCC(C)OCC(C)O (stereo not given)	/	i
80	CN1CCCC(OC(=O)COc2ccc(Br)cc2)C1 (stereo not given)	>57	i
81	CCOC(=O)CSc1nnc(CNC(=O)c2cc(OCC)c(OCC)c(OCC)c2)n1C	>57	i
82	CCOC(=O)C1C(=O)NC(N2CCN(Cc3ccccc3)CC2)=NC1c1ccco1 (stereo not given)	>57	i
83	O=C(CCC(=O)OCCCC(F)(F)C(F)(F)F)NC1CCCCC1	/	i
84	O=C(Nc1nc2ccc(S(=O)(=O)N3CCCC3)cc2s1)c1cccs1	>57	i
85	CCN(c1ccccc1)S(=O)(=O)c1ccc2[nH]cc(C(=O)N3CCOCC3)c(=O)c2c1	>57	i
86	O=C(Nn1cnnc1)c1cc(-c2ccccn2)nc2ccccc12	/	i
87	O=S(=O)(NCc1cn2ccsc2n1)c1cccs1	>57	i
88	COc1ccc(-n2c(SCC(=O)OC(C)C)nnc2-c2ccccn2)cc1	>57	i
89	O=C(CN1CCCCCC1)OCCN=C1NS(=O)(=O)c2ccccc21	>57	i
90	COC(=O)c1ccc(N2C(=O)c3ccc(OC)c(OC)c3C2=O)cc1	>57	i
91	CC(C)Oc1ccc(-c2nn(-c3ccccc3)cc2/C=c2\sc3ncnn3c2=O)cc1	i	i
92	CN(C)c1cccc(O)c1	/	i
93	C=CCOc1c(CNc2nccs2)cccc1OCC	?	i
94	COc1ccc(S(=O)(=O)N(C)c2ccc(OCC(=O)Nc3cc(C)on3)cc2)cc1	>57	i
95	Cc1ccc2c(c1)c1c3n2CC(=C2C(=O)OC(C)(C)OC2=O)NC3CCC1 (stereo not given)	i	i
96	C(=Nc1cnc2ccccc2c1)c1ccc2ccccc2n1	/	i
97	O=C(Cn1c(=O)oc2cc(S(=O)(=O)N3CCCC3)ccc21)Nc1cccc(C(F)(F)F)c1	>57	i
98	Cn1c(=O)c2c(nc(N3CCN(c4ccccc4)CC3)n2CCCc2ccccc2)n(C)c1=O	>57	i
99	O=S(=O)(Nc1ccc2nc(-c3ccc(Br)o3)[nH]c2c1)c1ccccc1	>11.4	i
100	O=S(=O)(c1cccc(C(F)(F)F)c1)N(CCCN1CCOCC1)Cc1cccs1	>57	i
101	COC(=O)c1sccc1NC(=O)C1CC=CCC1C(=O)O (stereo not given)	>57	i
102	CCCn1c(=N)n(CC(=O)OCC)c2ccccc21	>57	i
103	Nc1nonc1C(=O)OCC(=O)N1CCOCC1	>57	i
104	Cn1nnc2cc(C(=O)NCc3ccc4c(c3)OCO4)ccc21	i	i
105	O=S(=O)(c1ccc(F)c2ccccc12)N1CCCCC1	2.88*	i
106	CCOC(=O)c1c(NC(=O)Cn2c(=O)oc3ccccc32)oc(C)c1C(C)=O	>57	i
107	COc1ccc(OCC(=O)OCCN(C)C)cc1	>25.6	/
108	O=c1cc(CF)[nH]c(=S)[nH]1	/	i
109	O=C1C(=O)N(CCOCCO)C(c2ccccn2)/C1=C(\O)c1ccccc1 (stereo not given)	>57	i
110	Cc1ccc(-c2nsc3c(N4CCN(C(=O)c5ccco5)CC4)ncnc23)cc1	>57	i
111	CCOC(=O)c1cnc(-c2ccccc2)nc1N	i	i
112	CN1CCc2c(sc3c2c(NCc2ccco2)nc2nnnn23)C1	>11.4	i
113	COc1cccc(Cn2c(=O)c(C)nc3cnc(Oc4ccccc4)nc32)c1	/	i
114	N[C@@H](Cc1ccccc1)c1nnc2sc(SCc3ccccc3)nn12	>57	i
115	CCc1ccc(C2CC(c3ccc(Cl)cc3)n3nc(N)nc3N2)cc1 (stereo not given)	/	i
116	COc1ccccc1C(=O)NC(CCSC)C(=O)OCC(=O)NC(=O)NCc1ccco1 (stereo not given)	>57	i
117	COCc1[nH]nc2c1C(c1ccccc1F)C(C#N)=C(N)O2 (stereo not given)	>57	i
118	CC(=O)N(C)c1ccc(OCC(O)CN(Cc2ccco2)S(=O)(=O)c2ccc(C)cc2)cc1 (stereo not given)	/	i
119	CCN1CCN(C(=O)c2ccccc2N(C)S(=O)(=O)c2ccc(C)cc2)CC1	>57	i
120	COc1cc2c(cc1OC)CN(S(C)(=O)=O)CC2	/	i

# Carrying on.
No.	smiles	PK Bst	TsaE inh
121	CCC(C)Sc1nnc(-c2c[nH]c3ccccc23)n1CCOC (stereo not given)	>57	i
122	O=C(CN1C2=NCCCN2c2ccccc21)c1ccc2c(c1)OCO2	>57	i
123	CCn1c(=O)cc(SCC(=O)N2CCOCC2)c2ccccc21	>57	i
124	c1ccc(CN2CCC3(CCc4ccccc43)CC2)cc1	/	i
125	Cc1ccc(Cn2nnc3c(=O)n(CC(=O)NCc4ccc5c(c4)OCO5)cnc32)cc1	>57	i
126	CC(C)N1CC(O)=C(c2nc3ccccc3[nH]2)C1=N	/	i
127	Cc1sc2nc(C(C)C)nc(SCC(=O)N3CCN(C(=O)c4ccco4)CC3)c2c1C	>57	i
128	COc1ccc(Oc2ncc3nc(-c4ccccc4)c(=O)n(CCC#N)c3n2)cc1	/	i
129	CCOC(=O)C1CCCN(C(=O)CCCn2nc(C)n3c(cc4sccc43)c2=O)C1 (stereo not given)	/	i
130	CCOC(=O)CSc1nnc(Cn2c(=O)sc3ccccc32)n1-c1ccccc1C	/	i
